# Screens from PubChem BioAssay.
# Mtb hypoxia inh: Mtb hypoxia fluorescent reporter inhibition. M. tuberculosis hypoxia-regulated fluorescent reporter, fluorescence. fluorescence inhibition, % (no concentration beside the values). actives 0.1% (n = 300,000). AID 1159583;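 active = 35 to 45% if threefold the growth effect, above 45% if 1.5-fold the growth effect; inactive = the rest, general growth blockers included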;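 note: wells of about 50 µL received 100 nL stock; 0% = vehicle wells and 100% = reference inhibitor wells; whole bacteria with a GFP reporter of the hypoxia response; strong numbers were not always called active; many hits fall short of the cut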
# RN4220 kill: S. aureus RN4220 growth inhibition; inhibition, % (no concentration beside the values); actives 0.33% (n = 330,000); OD600, 16 h;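 active = z-score of -3 or lower and OD600 up to 0.18 on both plates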;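 note: plate controls were untreated cells for no effect and reference antibiotic for full effect; stock transfer was 100 nL into about 80 µL; one replicate is shown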
# PrP UTR inh: suppresses PrP 5' UTR mRNA reporter expression. cell-based PrP 5' UTR mRNA reporter, plate reader. inhibition, % (test concentration not listed). actives 0.35% (n = 340,000). AID 488862;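 active = every replicate at 50% or more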;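 note: 0 = median of the neutral control wells; tested in H4 reporter cells; numbers are from one replicate; inactives centre near -14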
# BJeLR lethal: kills HRASV12-expressing BJeLR cells | BJeLR (HRASV12) viability, CellTiter-Glo ATP luminescence, 48 h; reference of the scale not given here | inhibition, % (concentration not given with the values) | actives 0.17% (n = 300,000) | AID 1554;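 active = replicate mean above 50%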;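 note: 50 nL library stock added to about 25 µL; numbers are from one replicate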
# Autofluor counter: compound fluorescence in toxin protease inhibitor counterscreen | AID 624483 | compound autofluorescence counterscreen, microsphere flow cytometry; stronger effect = higher value | fluorescence intensity (test concentration not listed) | actives 3.1% (n = 360,000);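 active = at least 3 SD above the mean of all compounds, about 16000 in these data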;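 note: 100 nL of 1 mM stock went into each well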
# Sa ugtP lethal: kills S. aureus RN4220 lacking UgtP. S. aureus RN4220 ugtP deletion, OD600 growth, 16 h; some inactives read as strong as hits. growth inhibition, % (concentration not given with the values). actives 0.54% (n = 330,000);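 active = z-score under -3 and OD600 up to 0.15 on both plates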;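 note: plate controls were untreated wells for no effect and antibiotic for full effect; wells of about 80 µL received 100 nL stock; the first replicate is given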
# Mtb hypoxia inh growth: also measured in Mtb hypoxia inh; calls as there; growth inhibition, %; measured here: M. tuberculosis growth (absorbance);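 0% = vehicle and 100% = reference antibiotic; read after six days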
# * hit, by the source's call; / = no result given.
# Screens in order: Mtb hypoxia inh | Mtb hypoxia inh growth | RN4220 kill | PrP UTR inh | BJeLR lethal | Autofluor counter | Sa ugtP lethal
1	Nc1ncncc1-c1ccc([N+](=O)[O-])cc1
  9 | 4 | 10 | -12 | -12 | 10390 | -5
2	COC(=O)C(C)NC(=O)COc1ccc2ccccc2c1 (configuration not stated)
  0 | 5 | 0.7 | -14 | -3 | 5037 | 16
3	Cc1ccc(Cn2ccsc2=NC(=O)COC(=O)c2ccc(NC(=O)CC#N)cc2)cc1
  2 | -3 | 0.4 | -3 | -8 | 4650 | -5
4	CC1(C)N=C(c2ccccc2)C(=O)N1
  3 | 1 | -0.2 | -18 | 4 | 8628 | -2
5	COc1ccc(OC)c(NC(=S)NCc2ccccc2OC)c1
  0 | 4 | 4.3 | -12 | 3 | 3483 | -1
6	CC(C)[C@H](NC(=O)c1ccccc1Cl)C(=O)NC1CCCCCC1
  12 | -1 | 1.5 | -36 | 1 | 4046 | 0
7	Cc1cc(Br)c(OCc2ccc(C(=O)NN=Cc3ccc[nH]3)cc2)c(Br)c1
  4 | -5 | 0.7 | / | / | / | 5
8	Cc1nn(C(C)C)c(C)c1CN1CCCC(C(=O)c2cccc(OC(C)C)c2)C1 (configuration not stated)
  14 | 0 | 5.3 | 11 | 10 | 2152 | 2
9	COc1ccc(CNC(=O)Cc2c[nH]c3ccccc23)cc1OC
  2 | -1 | 5.0 | -5 | -7 | 4107 | 5
10	Cc1ccc(C)c(NC(=O)CN(C)C(=O)COc2ccc3ccccc3c2)c1
  7 | 10 | 3.6 | -19 | / | 3736 | 20
11	CCOC(=O)c1sc(NC(=O)CSc2n[nH]c(CC(C)C)n2)nc1C
  0 | 1 | 1.0 | -5 | -14 | 2616 | -1
12	CCN(C(=O)CSc1nnc(CNc2cccc(OC)c2)n1C1CCCCC1)C1CCS(=O)(=O)C1 (configuration not stated)
  8 | 1 | -0.2 | -11 | 5 | 6099 | 5
13	CCOC(=O)C1CCCN(C(=O)Cn2ncc3c(=O)oc4ccc(C)cc4c32)C1 (configuration not stated)
  -7 | 6 | 13 | -34 | / | 4975 | -2
14	COCc1cc(CN2CCCC(CNC(=O)c3ccc(F)cc3)C2)ccc1OC (configuration not stated)
  -2 | -7 | -0.5 | -22 | 1 | 6281 | 5
15	CCOC(=O)CCc1cnccc1-c1cccc(OC)c1O
  2 | 1 | 4.8 | -8 | -3 | 3939 | 0
16	Cc1cc(NC(=O)CSCC(=O)N(c2cccc(Cl)c2)C(C(=O)NC2CCCCC2)c2ccc(O)c(O)c2)no1 (configuration not stated)
  -10 | 3 | 0.2 | -23 | -3 | 2079 | 1
17	O=C(O)c1ccc(NC2CC(=O)N(Cc3ccccc3)C2=O)cc1 (configuration not stated)
  15 | 11 | 4.7 | -35 | 5 | 4376 | 1
18	CN(C(=O)c1cccc(S(=O)(=O)NCc2ccccc2)c1)C1CCCCC1
  7 | 15 | 3.8 | -13 | / | 3862 | 1
19	O=C(NCCCNC(=O)c1cnccn1)c1ccc(Br)cc1
  -1 | -5 | 2.1 | 14 | 3 | 3282 | 1
20	O=c1cc(N2CCN(c3ccccc3)CC2)[nH]c(=O)n1-c1ccccc1
  / | / | / | -9 | -3 | 2528 | /
21	CCN(C(=O)COC(=O)c1nc2nc(C)cc(C)n2n1)C1CCS(=O)(=O)C1 (configuration not stated)
  -1 | -3 | -0.4 | -6 | 9 | 5318 | 1
22	CCC(=O)N1CCN(c2nc3ccc(Br)cc3s2)CC1
  4 | 11 | 0.6 | -93 | 5 | 6036 | -4
23	CCC(C)[C@H](NC(=O)Nc1ccccc1F)C(=O)O (some centres not stated)
  2 | 4 | 0.8 | -26 | -7 | 4692 | 9
24	COc1ccc(OC)c(-c2csc(NC(=O)CN3C(=O)NC4(CCCC4)C3=O)n2)c1
  -1 | -3 | 1.4 | -27 | 1 | 4835 | 4
25	CCc1ccc2[nH]c(=O)c(Cc3ccccc3)c(O)c2c1
  11 | 5 | 0.4 | -18 | -6 | 3208 | -1
26	COc1ccc(C2C(C(=O)N3CC(C)CC(C)C3)c3ccccc3C(=O)N2C)cc1 (configuration not stated)
  15 | 10 | 0.9 | -15 | -6 | 4020 | 0
27	CC1CC(=O)Nc2ccc([N+](=O)[O-])cc2N1C (configuration not stated)
  5 | 0 | 7.2 | -16 | 0 | 1941 | 3
28	O=C(CN1CC(c2ccccc2)CC1=O)NN=Cc1cc(Br)ccc1O (configuration not stated)
  10 | -3 | 5.6 | / | / | / | -1
29	COc1ccc(N2C(=O)C3C4c5ccccc5C(C=Nc5ccc(C)cc5C)(c5ccccc54)C3C2=O)cc1 (configuration not stated)
  2 | 5 | 3.7 | -24 | -4 | 4115 | -6
30	O=[N+]([O-])c1ccc2c(c1)Cc1cc(O)ccc1-2
  8 | 11 | -6.9 | -30 | / | 4547 | 26

[31] CSc1nsc(SC)c1NC(=O)N1CCCC1
[32] Cc1c(C(=O)OCC(=O)Nc2cccc(S(N)(=O)=O)c2)oc2c1ccc1ccccc12
[33] O=C(CSc1nncs1)Nc1nccs1
[34] O=C(O)c1ccc(-n2nnnc2SCc2ccccc2)cc1
[35] CC(=O)c1cn(CC(=O)NCc2ccco2)c2ccccc12

screen / no.	31	32	33	34	35
Mtb hypoxia inh	9	4	8	14	4
Mtb hypoxia inh growth	8	-7	10	4	1
RN4220 kill	5.6	-1.0	4.8	0.7	4.8
PrP UTR inh	-28	-6	-31	-24	-25
BJeLR lethal	0	-8	4	-5	1
Autofluor counter	8224	4500	4047	9113	3210
Sa ugtP lethal	8	-2	6	12	-5

[36] Cc1ccnc(Sc2ncccc2[N+](=O)[O-])n1
[37] CCOc1ccc(C2c3[nH]c4ccccc4c3CCN2Cc2cn(CC)nc2C)cc1 (configuration not stated)
[38] CCOC(=O)c1c(S(=O)(=O)NCCc2cccs2)c(C)n(C)c1C
[39] COCCN(C(=O)CCSc1ccc(F)cc1)c1c(N)n(Cc2ccccc2)c(=O)[nH]c1=O
[40] CC1=C(/C=C/C(C)=C/C=C/C(C)=C/CO)C(C)(C)CCC1

screen / no.	36	37	38	39	40
Mtb hypoxia inh	/	-1	13	1	/
Mtb hypoxia inh growth	/	-4	0	-6	/
RN4220 kill	1.7	-2.2	1.8	3.3	3.1
PrP UTR inh	-7	-34	-8	-11	-23
BJeLR lethal	11	6	-7	/	1
Autofluor counter	2663	2308	4374	3049	5133
Sa ugtP lethal	3	3	3	0	2

[41] COCCNC(=O)N1C2CCC1C(C(=O)OC)=C(c1ccc(OC(F)(F)F)cc1)C2 (configuration not stated)
[42] NC(=O)c1cnn2c(C(F)(F)F)cc(-c3ccccc3)nc12
[43] CCSc1nnc(NC(=O)CSc2nccn2-c2cccc(C)c2)s1
[44] CCC1CCCCN1CCCNC(=O)C1CCN(S(=O)(=O)N2CCCCC2)CC1 (configuration not stated)
[45] CC[C@]12c3[nH]c4ccc(Cl)cc4c3CCN1C(=O)[C@@H](CC(=O)NCCCOC)C[C@@H]2C(=O)N1CCN(C(=O)c2ccco2)CC1

screen / no.	41	42	43	44	45
Mtb hypoxia inh	-1	/	/	2	3
Mtb hypoxia inh growth	-2	/	/	4	4
RN4220 kill	-3.4	-0.5	10	0.8	1.7
PrP UTR inh	/	11	-18	-28	-15
BJeLR lethal	/	4	-5	4	/
Autofluor counter	/	4796	5842	8749	3177
Sa ugtP lethal	-11	-5	5	3	0

[46] COc1ccc(S(=O)(=O)N2CCOCC2)cc1C(=O)NCc1c(C)nn(Cc2ccccc2)c1C
[47] Cc1cccc(C(=O)C2CCN(S(=O)(=O)c3cccc(C(=O)O)c3)CC2)c1
[48] Cc1cc2ncn(-c3ncnc4sc5c(c34)CCC(C)C5)c2cc1C (configuration not stated)
[49] Cc1ccc2c(c1)C(c1ccc(F)cc1)N(C(=O)c1ccc(S(=O)(=O)N(C)C)cc1)CC(=O)N2 (configuration not stated)
[50] COc1ccc(C=NN(C)c2cc(=O)n(C)c(=O)[nH]2)cc1OC

screen / no.	46	47	48	49	50
Mtb hypoxia inh	-7	5	5	-4	-8
Mtb hypoxia inh growth	5	2	9	-7	0
RN4220 kill	5.9	-0.6	-2.9	-0.6	3.4
PrP UTR inh	-18	-10	-1	1	/
BJeLR lethal	/	-16	10	-16	/
Autofluor counter	3922	5199	10332	3173	/
Sa ugtP lethal	6	14	-18	11	8

# Reprinted from the part before: two entries; new compounds follow.
[49] Cc1ccc2c(c1)C(c1ccc(F)cc1)N(C(=O)c1ccc(S(=O)(=O)N(C)C)cc1)CC(=O)N2 (configuration not stated)
[50] COc1ccc(C=NN(C)c2cc(=O)n(C)c(=O)[nH]2)cc1OC
[51] c1ccc2c(c1)ncn2CCOCCOCCn1cnc2ccccc21
[52] CCc1ccc2[nH]c(C(=O)Nc3ccc(C)c(F)c3)cc2c1
[53] CC(C)C1Nc2ccc(C(=O)NCCCN3CCOCC3)cc2NC1=O (configuration not stated)
[54] COCCNC(=S)NN(c1ccccc1)c1ccccc1
[55] O=C(Nc1cc(F)ccc1F)c1cccc(-n2cnnn2)c1

screen / no.	49	50	51	52	53	54	55
Mtb hypoxia inh	-4	-8	13	2	13	4	9
Mtb hypoxia inh growth	-7	0	5	5	3	5	-1
RN4220 kill	-0.6	3.4	2.6	-5.4	1.4	4.2	4.0
PrP UTR inh	1	/	-17	-16	-26	-21	-21
BJeLR lethal	-16	/	2	-4	2	-4	4
Autofluor counter	3173	/	2553	3370	3744	3297	4521
Sa ugtP lethal	11	8	2	-4	4	5	10

# From entry 29 up to 30, copied from above:
[29] COc1ccc(N2C(=O)C3C4c5ccccc5C(C=Nc5ccc(C)cc5C)(c5ccccc54)C3C2=O)cc1 (configuration not stated)
[30] O=[N+]([O-])c1ccc2c(c1)Cc1cc(O)ccc1-2

screen / no.	29	30
Mtb hypoxia inh	2	8
Mtb hypoxia inh growth	5	11
RN4220 kill	3.7	-6.9
PrP UTR inh	-24	-30
BJeLR lethal	-4	/
Autofluor counter	4115	4547
Sa ugtP lethal	-6	26

# In the list so far, these contain a furan ring, fused or not:
[32] Cc1c(C(=O)OCC(=O)Nc2cccc(S(N)(=O)=O)c2)oc2c1ccc1ccccc12
[35] CC(=O)c1cn(CC(=O)NCc2ccco2)c2ccccc12
[45] CC[C@]12c3[nH]c4ccc(Cl)cc4c3CCN1C(=O)[C@@H](CC(=O)NCCCOC)C[C@@H]2C(=O)N1CCN(C(=O)c2ccco2)CC1

screen / no.	32	35	45
Mtb hypoxia inh	4	4	3
Mtb hypoxia inh growth	-7	1	4
RN4220 kill	-1.0	4.8	1.7
PrP UTR inh	-6	-25	-15
BJeLR lethal	-8	1	/
Autofluor counter	4500	3210	3177
Sa ugtP lethal	-2	-5	0

# The results go on.
[56] CCN(CC)C(=O)CSc1nnc(-c2ccccn2)n1Cc1ccccc1
[57] Cc1cc(Cl)c(S(=O)(=O)N2CCCCCC2)cc1OCC(N)=O
[58] CCOC(=O)N1CCC(N2Cc3cccc(C(=O)O)c3C2=O)CC1
[59] Cc1cc(C)cc(NC(=O)CSc2nnc(-c3ccc(S(=O)(=O)N4CCCC4)cc3)o2)c1
[60] O=C(COC(=O)c1cc(S(=O)(=O)N2CCOCC2)ccc1O)Nc1ccc2c(c1)OCO2

screen / no.	56	57	58	59	60
Mtb hypoxia inh	14	/	2	-1	3
Mtb hypoxia inh growth	6	/	2	0	0
RN4220 kill	0.9	3.9	2.9	-1.6	1.6
PrP UTR inh	-9	-16	-15	-21	-24
BJeLR lethal	2	/	-8	4	/
Autofluor counter	3871	4727	5802	9482	3765
Sa ugtP lethal	0	3	-4	4	6

[61] COC(=O)c1ccc(NC(=O)CN2CCN(CCO)CC2)cc1
[62] O=C(NCC1CCCO1)C1CCCN(S(=O)(=O)c2ccc(Br)cc2)C1 (configuration not stated)
[63] Cc1ccc(C(=O)OCC(=O)Nc2ccc(C(N)=O)cc2)s1
[64] COc1cc(S(=O)(=O)N2CCOCC2)ccc1NC(=O)COC(=O)c1ccc(Cl)nc1
[65] NC(=O)c1cc[n+](Cc2ccc([N+](=O)[O-])cc2)cc1
[66] CC(c1nccs1)N(C)C(=O)CCc1nnc(Cc2c[nH]c3ccccc23)o1 (configuration not stated)

screen / no.	61	62	63	64	65	66
Mtb hypoxia inh	/	12	3	4	3	2
Mtb hypoxia inh growth	/	13	11	1	-4	-1
RN4220 kill	/	4.3	0.9	4.3	3.3	3.4
PrP UTR inh	-14	-19	10	-29	-20	/
BJeLR lethal	2	6	/	/	7	-6
Autofluor counter	4390	5618	3502	6079	3878	4586
Sa ugtP lethal	/	6	2	1	5	5

# Hits appear at their usual frequency; any-hit rate near 4%.
